High-throughput results (PubChem)
AmpC nodet inh = blocks E. coli AmpC beta-lactamase in absence of detergent; P00811; AmpC nitrocefin hydrolysis, absorbance 480 nm, no detergent; potencies from a single point are estimates; Potency, µM (doses to about 28.7 µM), for inactives: at the highest dose activity change, negative = inhibition; hit rate 1.8% among 71,000; active = falling curve, for most hits resting on a single point; inconclusive = weak or doubtful change; inactive = flat or rising curve; also: % of control where 0% means no effect; about half of the hits show no inhibition at the top dose; a quarter of the inactives give rising signals
Target sequence (P00811 whole entry, looked up): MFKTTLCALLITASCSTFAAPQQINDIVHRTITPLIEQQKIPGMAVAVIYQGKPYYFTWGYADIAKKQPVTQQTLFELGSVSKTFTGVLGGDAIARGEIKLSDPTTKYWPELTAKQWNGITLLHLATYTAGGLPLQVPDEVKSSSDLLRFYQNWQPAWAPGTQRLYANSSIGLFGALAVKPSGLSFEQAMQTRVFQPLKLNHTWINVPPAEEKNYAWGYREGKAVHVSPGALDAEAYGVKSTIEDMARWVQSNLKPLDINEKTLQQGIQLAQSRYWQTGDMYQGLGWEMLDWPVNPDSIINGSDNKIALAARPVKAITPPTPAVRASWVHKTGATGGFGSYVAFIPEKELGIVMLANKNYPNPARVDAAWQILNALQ
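Enzyme, pH 7.0 phosphate. Compound titrations were pre-incubated with AmpC for 15 min at room temperature before nitrocefin (stock 800 uM) addition; product formation was recorded at 480 nm every 20 s for 4 min.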
* hit, by the source's call; [ ] = another dose, or the depositor's remark. Potency is read from the fitted curve at half-maximal effect. Some of the compounds tested, so the mix of outcomes need not match the whole.

`O=C(NCCNC[C@@H](O)COc1ccc(O)cc1)N1CCOCC1` gave AmpC nodet inh 22%.
`COc1ccc(OC)c(NC(=O)CCCN2C(=O)C3C4C=CC(C4)C3C2=O)c1` (stereo not drawn) gave AmpC nodet inh 18%.
Screening CC(C)[C@H](NC(=O)Nc1ccc(Oc2ccccc2)cc1)C(=O)O returned AmpC nodet inh -11%.
`CCCCCC[C@H]1C(=O)O[C@H](C)[C@H](NC(=O)c2cccc(NC=O)c2O)C(=O)O[C@@H](C)[C@H]1OC(=O)CC(C)C` gave AmpC nodet inh 14%[12.8 µM].
O=C(O)CSc1ccc(N=C=S)cc1 was read as AmpC nodet inh -7%[5.75 µM].
Screening COc1ccc(CC(=O)Nc2ccc(-c3noc(COc4ccccc4C)n3)cc2)cc1 returned AmpC nodet inh -4%.
`COCCNCC#CCOc1ccc(OC)cc1` gave AmpC nodet inh 1%.
For CC(C)C(C)(C#N)NC(=O)CSc1nnc(-c2ccncc2)n1Cc1ccccc1 (stereo not drawn) the results were AmpC nodet inh 32%.
For COCCCN1C(=O)C(=O)/C(=C(/O)c2ccc3c(c2)CC(C)O3)C1c1cccnc1 (stereo not drawn) the results were AmpC nodet inh -6%.
COc1ccccc1OCCNC(=O)c1ccccc1C was read as AmpC nodet inh 22%.
For CCc1cccc(NC(=O)c2ccc(Br)o2)c1 the results were AmpC nodet inh -11%.
CCOc1ccc(C2C=C(c3ccc(C)cc3)Nc3ncnn32)cc1 (stereo not drawn) was read as AmpC nodet inh 31%.
Screening O=C(CNS(=O)(=O)c1cccc(C(F)(F)F)c1)Nc1ccccc1F returned AmpC nodet inh -7%.
O=C(CN1C(=O)c2cccc3cccc1c23)NCc1cccnc1 was read as AmpC nodet inh -8%.
O=C(Nc1ccc(Br)cc1F)c1ccc2c(c1)N(Cc1ccccc1)C(=O)CS2=O (stereo not drawn) was read as AmpC nodet inh 51%.
Screening O=C(c1ccc(-c2ccccc2)cc1)N1CCCC1 returned AmpC nodet inh 33%.
`CC1(C)CC(=O)C(C=Nc2ccncc2)=C(O)C1` gave AmpC nodet inh -8%.
For COc1ccccc1-c1nnc(SCC(=O)Nc2nc(-c3ccccc3)cs2)n1C the results were AmpC nodet inh 1%.
`COc1cccc(NS(=O)(=O)c2ccc(Br)s2)c1` gave AmpC nodet inh -17%.
For CC(C)(C)NC(=O)[C@@H]1C[C@H]2CCCC[C@@H]2CN1C[C@H](O)[C@H](Cc1ccccc1)NC(=O)[C@@H](CC(N)=O)NC(=O)c1ccc2ccccc2n1 the results were AmpC nodet inh 135%[12.8 µM].
`CC(C)Cn1c(=O)c(C(=O)NCc2ccccn2)c(O)c2ccccc21` gave AmpC nodet inh 62%.
`COc1ccccc1C(=O)N1CCN(C(=O)c2ccncc2)CC1` gave AmpC nodet inh -5%.
COC(=O)c1ccc2c(c1)N(Cc1nc(-c3cccc(C)c3)oc1C)C(=O)C1CCCN21 (stereo not drawn) was read as AmpC nodet inh 70%.
CCCC(=O)NCCc1cc2ccc(OC)cc2[nH]c1=O was read as AmpC nodet inh 4%.
Cc1ccc(C(=O)c2nocc2C(=O)c2cccs2)cc1 was read as AmpC nodet inh -12%.
For CC1(C)NC(=O)N(CC(O)COc2ccc(-c3ccccc3)cc2)C1=O (stereo not drawn) the results were AmpC nodet inh 14%.
COc1ccc2occ(C(=O)c3coc4ccc(O)c(CN(C)C)c34)c2c1 was read as AmpC nodet inh 69%.
`N#Cc1ccccc1Sc1ccccc1C(=O)OCc1nnc(-c2ccccc2)o1` gave AmpC nodet inh -14%.
`CCNc1ncc2nc(-c3ccc(F)cc3)c(=O)n(C[C@H]3CCCO3)c2n1` gave AmpC nodet inh -4%.
Screening CCOC(=O)c1cnc(-n2nc(C)cc2C)nc1N1CCOCC1 returned AmpC nodet inh 7%.

Fetched by structure from above (7):
For CC(C)(C)NC(=O)[C@@H]1C[C@H]2CCCC[C@@H]2CN1C[C@H](O)[C@H](Cc1ccccc1)NC(=O)[C@@H](CC(N)=O)NC(=O)c1ccc2ccccc2n1 the results were AmpC nodet inh 135%[12.8 µM].
`CCNc1ncc2nc(-c3ccc(F)cc3)c(=O)n(C[C@H]3CCCO3)c2n1` gave AmpC nodet inh -4%.
`COc1ccccc1C(=O)N1CCN(C(=O)c2ccncc2)CC1` gave AmpC nodet inh -5%.
COC(=O)c1ccc2c(c1)N(Cc1nc(-c3cccc(C)c3)oc1C)C(=O)C1CCCN21 (stereo not drawn) was read as AmpC nodet inh 70%.
Screening O=C(c1ccc(-c2ccccc2)cc1)N1CCCC1 returned AmpC nodet inh 33%.
`CC1(C)CC(=O)C(C=Nc2ccncc2)=C(O)C1` gave AmpC nodet inh -8%.
Screening CCOC(=O)c1cnc(-n2nc(C)cc2C)nc1N1CCOCC1 returned AmpC nodet inh 7%.

More compounds:
`CCCc1cc(=O)oc2cc(Oc3ncccn3)ccc12` gave AmpC nodet inh 4%.
For COc1ccc(CCNC(=O)COc2ccc(S(=O)(=O)N3CCOCC3)cc2)cc1 the results were AmpC nodet inh 37%.
For Nc1nc(Cl)cc(NCCO)n1 the results were AmpC nodet inh -6%[5.75 µM].
NC(=O)c1ccccc1N/C=C/C(=O)c1ccccc1 was read as AmpC nodet inh -7%.
`CCOC(=O)c1ccccc1NC(=O)c1cccs1` gave AmpC nodet inh -7%.
For COc1ccc(-c2noc(-c3ccco3)n2)cc1OC the results were AmpC nodet inh 18%.
`Cc1ccc(C(=O)COC(=O)c2ccc(Br)o2)cc1C` gave AmpC nodet inh -10%.
CC(C)c1ccc(S(=O)(=O)N2CCN(C(=O)c3cccc(F)c3)CC2)cc1 was read as AmpC nodet inh 73%.
ON1C2CCCCC2N(O)C1c1c(F)c(F)c(F)c(F)c1F (stereo not drawn) was read as AmpC nodet inh -14%.
For Cc1csc(NC(=O)CSc2nnc(-c3ccccn3)n2-c2ccc(C)c(C)c2)n1 the results were AmpC nodet inh 105%.
`Cc1ccc2c(c1)c1c3n2CCN(C(=O)Cn2c(-c4ccccc4)noc2=O)C3CCC1` (stereo not drawn) gave AmpC nodet inh 7%.
`CN(C(=O)CSc1nc2c(c(=O)[nH]1)CCCC2)C1CCCCC1` gave AmpC nodet inh 1%.
Screening O=C(N=C1SCC(=O)N1c1ccccc1Cl)c1ccco1 returned AmpC nodet inh -23%.
Screening COc1ccc(CCn2c(=O)[nH]c3cc(C(=O)NCCCN4CCOCC4)ccc3c2=O)cc1OC returned AmpC nodet inh 33%.
For O=P1(O)C=C(c2ccccc2)OC(c2ccccc2)=C1 the results were AmpC nodet inh -8%.
Screening OCC#Cc1cnc2ccccc2c1 returned AmpC nodet inh -3%.
Screening Fc1ccccc1COc1cccc(/C=N/n2cnnc2)c1 returned AmpC nodet inh 21%.
COc1cccc(-c2cc3nc(-c4ccccc4)cc(N4CCC5(CC4)OCCO5)n3n2)c1 was read as AmpC nodet inh 45%.
Screening COCCOC(=O)C1=C(C)NC2=C(C(=O)CCC2)C1c1ccc(N(C)C)cc1 (stereo not drawn) returned AmpC nodet inh 14%.
`O=C(CN1CCCCC1)Nc1cccc(-n2cnnn2)c1` gave AmpC nodet inh -13%.
For C=CCn1c(C)cc(C(=O)COc2nncc3ccccc23)c1C the results were AmpC nodet inh 64%.
For CC(=O)N(c1cccc(Br)c1)C1C=CS(=O)(=O)C1 (stereo not drawn) the results were AmpC nodet inh 0%.
Screening CCOc1ccccc1-n1c(SCC(N)=O)nnc1-c1ccc(O)cc1 returned AmpC nodet inh 23%.
For CCCCOc1ccc(C(=O)Nc2ccc(N3CCN(C)CC3)cc2)cc1 the results were AmpC nodet inh 67%.
For CN(C(=O)COc1ccccc1)c1nnc(-c2cccnc2)s1 the results were AmpC nodet inh 9%.
For CCOC(=O)c1cc(NC(=O)SCC(=O)O)c(C)nc1C the results were AmpC nodet inh 1%.
Cc1ccc(N(CC(=O)NC2CC3CCC2C3)S(C)(=O)=O)cc1C (stereo not drawn) was read as AmpC nodet inh 36%.
For Cc1ccc(-c2nn3c(C)nnc3s2)cc1NC(=O)c1ccc(-c2cccc(Cl)c2)o1 the results were AmpC nodet inh 76%.
Screening Cc1cc(C(=O)N2CCN(C/C=C/c3ccccc3)CC2)cs1 returned AmpC nodet inh 95%.
Screening CCCc1ccc(C(=O)N2CCN(c3ccccc3OCC)CC2)cc1 returned AmpC nodet inh 53%.
Screening CCCCOc1ccc(-c2ncc(C(=O)OCC)c(N)n2)cc1 returned AmpC nodet inh 30%.
For COc1ccn(C)c(=O)c1C#N the results were AmpC nodet inh 7%.
For COc1ccccc1N1CC(C(=O)Nc2cccc(C(=O)O)c2)CC1=O (stereo not drawn) the results were AmpC nodet inh 3%.
Screening NS(=O)(=O)c1ccc(CCNC(=O)C2CCCCN2S(=O)(=O)c2ccccc2)cc1 (stereo not drawn) returned AmpC nodet inh -6%.
Screening O=C(O)C1C2C=CC(C2)C1C(=O)NCCC1=CCCCC1 (stereo not drawn) returned AmpC nodet inh 8%.
Screening CCc1c(C)[nH]c(=S)c(C#N)c1C returned AmpC nodet inh -1%.
For COc1ccccc1-c1nnc2sc(COc3ccc(Cl)cc3)nn12 the results were AmpC nodet inh 66%.
Screening O=C(NCCCc1ccccc1)c1ccncc1 returned AmpC nodet inh -11%.
O=C(CCSc1nc(-c2ccco2)cc(C(F)(F)F)n1)N1CCN(c2ccccc2)CC1 was read as AmpC nodet inh 73%.
CN(C)S(=O)(=O)N(CC(=O)Nc1ccccc1F)c1ccccc1 was read as AmpC nodet inh -2%.
`Cc1csc(Sc2nc3c(c(=O)[nH]c(=O)n3C)n2Cc2ccccc2Cl)n1` gave AmpC nodet inh 20%.
`C=CCn1c(SCC(=O)NC2CCS(=O)(=O)C2)nc2scc(C3CC3)c2c1=O` (stereo not drawn) gave AmpC nodet inh 43%.
For O=C(CN1C(=O)c2ccccc2C1=O)NC1(C(=O)O)CCCC1 the results were AmpC nodet inh 1%[5.75 µM].
`CC1(c2ccccc2Cl)NC(=O)N(CC(=O)NC(=O)NCc2ccco2)C1=O` (stereo not drawn) gave AmpC nodet inh 6%.
CCc1nnc(NS(=O)(=O)c2ccc(NC(=O)OC)cc2)s1 was read as AmpC nodet inh -8%.
COc1ccc(C)cc1NC(=O)c1cc2cc3ccc(C)cc3nc2o1 was read as AmpC nodet inh -6%.
For O=C(CSc1nnc(CNC(=O)c2cccs2)o1)Nc1cccc(C(F)(F)F)c1 the results were AmpC nodet inh 6%.
`O=C1C=C(NCc2ccco2)CCC1` gave AmpC nodet inh -7%.
c1ccc2c(c1)NC1(CCCC1)n1c-2nc2ccccc21 was read as AmpC nodet inh -21%.
Screening Cc1nc(NC2=NCN(CCCN3CCOCC3)CN2)nc2c(C)cccc12 returned AmpC nodet inh 27%.
Cc1ccc(OCc2nc(C#N)c(NCCCn3ccnc3)o2)cc1 was read as AmpC nodet inh 29%.
For CC(=O)COc1cc(C)cc2oc(=O)c(C)c(C)c12 the results were AmpC nodet inh 11%.
CC1CCCC(NC(=O)C2CCN(S(=O)(=O)N3CCOCC3)CC2)C1C (stereo not drawn) was read as AmpC nodet inh 10%.
COc1ccc(C(=O)NCC23C=CC(O2)C2C(=O)N(Cc4ccccc4)C(=O)C23)cc1 (stereo not drawn) was read as AmpC nodet inh 59%.
Screening COc1ccc2c(CSc3nc4nc(C)cc(C)n4n3)cc(=O)oc2c1 returned AmpC nodet inh 104%.
For O=C(NCCCN1CCOCC1)c1cc2c(s1)CSC2 the results were AmpC nodet inh 42%.
`CCOC(=O)NC1(C(F)(F)F)NC(=O)N(Cc2ccco2)C1=O` (stereo not drawn) gave AmpC nodet inh 0%.
CCn1c(SCC(=O)C(C)(C)C)nnc1-c1cnccn1 was read as AmpC nodet inh 3%.
Screening O=C(CCN1C(=O)c2ccccc2C1=O)Nc1ccc2c(c1)OCCO2 returned AmpC nodet inh 9%.
Screening c1ccc(-n2nnc3cnccc32)cc1 returned AmpC nodet inh -14%.
`CC(NC(=O)OCc1ccccc1)C(=O)N1CC(O)CC1C(=O)O` (stereo not drawn) gave AmpC nodet inh 0%.
`CCn1c(-c2cc(Br)ccc2O)n[nH]c1=S` gave AmpC nodet inh -4%.
Screening c1ccc(OCCCc2nc(-c3ccncc3)no2)cc1 returned AmpC nodet inh 30%.
For C=CCn1c(SCC(=O)Nc2ccccc2OC)nnc1-c1ccccn1 the results were AmpC nodet inh 33%.
`O=C(CSc1ncn[nH]1)Nc1cccc2ccccc12` gave AmpC nodet inh -6%.
Screening N#CCCn1c(=O)c(-c2cccs2)nc2cnc(N3CCNCC3)nc21 returned AmpC nodet inh 46%.
Screening CCCC12CN3CC(C)(CN(C1)C31CCCCC1)C2=O returned AmpC nodet inh 2%.
For O=C(Oc1ccccc1)c1cccc(N2C(=O)CCC2=O)c1 the results were AmpC nodet inh 10%.
`CN1CCN(c2ccc(Cl)cc2NC(=O)c2ccc(S(=O)(=O)N3CCCCCC3)cc2)CC1` gave AmpC nodet inh 142%.
For O=C(CSc1nnc(Cc2ccccc2)o1)NC1CC2CCC1C2 (stereo not drawn) the results were AmpC nodet inh 26%.
`CCCCCCC=O` gave AmpC nodet inh -15%.
`O=C(Cn1nnc(-c2ccccc2NC(=O)c2ccco2)n1)NC1CCCCC1` gave AmpC nodet inh 6%.
COc1cccc(OC)c1OCCNC[C@@H]1CSc2ccccc2O1 was read as AmpC nodet inh 36%.

An excerpt from above in order of molecular weight, ascending.
`CCCCCCC=O` gave AmpC nodet inh -15%.
`O=C(CSc1ncn[nH]1)Nc1cccc2ccccc12` gave AmpC nodet inh -6%.
For O=C(CSc1nnc(Cc2ccccc2)o1)NC1CC2CCC1C2 (stereo not drawn) the results were AmpC nodet inh 26%.
`CN1CCN(c2ccc(Cl)cc2NC(=O)c2ccc(S(=O)(=O)N3CCCCCC3)cc2)CC1` gave AmpC nodet inh 142%.
